YopH PTP inh: blocks Yersinia enterocolitica YopH tyrosine phosphatase; fluorescence Ex485/Em525; inhibition, %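 (about 10 µM by stock and volumes)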; 140,000 tested, 0.16% active; AID 898;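 active = inhibition of 50% or more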;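 also: controls were vehicle for no effect and minimum signal wells for full effect; inactives centre near -20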
Arbovirus anti: blocks arbovirus infection; inhibition, % at 10 µM; AID 1251; 200,000 tested, 0.37% active; arbovirus infection cell-based antiviral screen;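 active = inhibition from about 30%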;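 also: bluetongue infection of BSR cells; cell survival read as ATP light after 72 h; 0% = infected wells without compound and 100% = uninfected wells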
Mtb bLac sens: beta-lactam sensitization of Mtb H37Rv; M. tuberculosis H37Rv growth with meropenem, percent inhibition; hits of this screen are not shown here; 330,000 tested, 0.27% active; inhibition, % at 25 µM;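 active = about 74% or more and at least 40 points above the plate without the antibiotic, then above 30% in a dose series; inconclusive = first-round hits that could not be retested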;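 also: growth measured after seven days incubation then overnight dye step; 0% = bacteria only wells and 100% = bacteria with antibiotic; twin plates without the antibiotic show which effects depend on it; some results filed as inactive read as strong as hits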
RecA splice inh: Mtb RecA intein splicing inhibition; cell-free RecA intein splicing, fluorescence; 290,000 tested, 0.75% active; AID 2221; inhibition, %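 (about 9 µM by stock and volumes)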; in the data active = inhibition above about 30%; inconclusive = no clear call, values can overlap the other calls;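 also: 0% = vehicle wells and 100% = reference inhibitor control wells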
Target sequence (P9WHJ3 whole entry, looked up, canonical isoform): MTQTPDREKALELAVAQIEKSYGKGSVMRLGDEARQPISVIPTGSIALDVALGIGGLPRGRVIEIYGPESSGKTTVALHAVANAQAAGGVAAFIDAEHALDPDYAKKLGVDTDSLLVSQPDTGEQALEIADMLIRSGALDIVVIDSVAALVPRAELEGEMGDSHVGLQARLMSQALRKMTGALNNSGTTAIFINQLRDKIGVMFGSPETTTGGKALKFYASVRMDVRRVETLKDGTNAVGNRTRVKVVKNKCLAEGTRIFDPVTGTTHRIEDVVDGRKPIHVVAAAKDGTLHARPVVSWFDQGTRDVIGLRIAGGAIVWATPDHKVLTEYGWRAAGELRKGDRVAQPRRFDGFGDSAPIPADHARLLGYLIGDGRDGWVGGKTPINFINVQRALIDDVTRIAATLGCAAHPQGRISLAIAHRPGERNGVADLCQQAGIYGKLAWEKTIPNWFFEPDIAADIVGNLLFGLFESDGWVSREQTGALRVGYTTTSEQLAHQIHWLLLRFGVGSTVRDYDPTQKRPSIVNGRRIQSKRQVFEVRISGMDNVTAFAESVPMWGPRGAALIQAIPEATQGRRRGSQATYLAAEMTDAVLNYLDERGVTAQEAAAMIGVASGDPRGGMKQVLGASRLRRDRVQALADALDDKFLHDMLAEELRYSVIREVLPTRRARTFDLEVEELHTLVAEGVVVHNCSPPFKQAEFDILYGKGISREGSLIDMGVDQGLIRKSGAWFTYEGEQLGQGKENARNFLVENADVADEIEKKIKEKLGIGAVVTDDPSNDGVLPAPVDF
Mtb growth: M. tuberculosis H37Rv growth inhibitors, H37Rv strain (AID 1626) | M. tuberculosis H37Rv growth inhibition; higher % means a stronger effect | inhibition, % at 10 µM; hits with a dose series show IC50 in µM | 220,000 tested, 0.95% active;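 active = confirmed in a dose series; inconclusive = inhibition above 80% but not taken into the dose series; inactive = below 80% or under 30% at every dose of the series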;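 also: bacteria incubated seven days before Alamar blue readout; 0% = bacteria only wells and 100% = bacteria with antibiotic wells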
Arbovirus anti repeat: recorded beside Arbovirus anti, whose call it bears; inhibition, %; measured here: 10K subset replicate screen; many hits read low in the repeat;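 first of two repeat runs on a subset; 0% = infected and 100% = uninfected wells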
An asterisk follows results filed as active; ? = inconclusive; / = not tested or not shown. Only part of the results is shown (hit frequency here may not be typical).

SMILES	YopH PTP inh	Arbovirus anti	Mtb bLac sens	RecA splice inh	Mtb growth	others
COc1ccc([N+](=O)[O-])cc1NS(=O)(=O)c1ccc(Cl)c(C(=O)Nc2sc3c(c2C#N)CCCCC3)c1	/	-28	77	-0.1	9%
CC(C)CCOc1ccc(C(=O)N2CCN(c3ncccn3)CC2)cc1	/	/	0	5.7	/
C=C(C)CSc1nnc2n(C)c(=O)c3c4c(sc3n12)CCC4	-45	-28	-7	-1.6	-3%
C=CCSc1nnc(CC(OC)OC)n1-c1ccccc1	/	10	1	-2.2	1%
Nc1nc2nccc(-c3ccc(Cl)cc3)n2n1	-21	-6	2	/	6%
Cc1cc(C)c(C)c(S(=O)(=O)NCc2ccc(C(=O)N3CCCC3)cc2)c1C	/	1	-2	-1.1	-3%
CN(NS(=O)(=O)c1ccc(Cl)cc1)c1nc(C(F)(F)F)nc2ccccc12	/	14	-2	1.0	/
N#Cc1c2c(c(-c3ccco3)[nH]c1=O)CCCC2	-17	-4	1	/	-6%
CCCc1c(C(=O)N/N=C/c2ccc(OC)c(OCc3ccccc3)c2)nnn1-c1nonc1N	/	/	1	-1.3	/
COc1cccc(CNC(=O)CCC2CCCN(Cc3ccc(OC(F)F)cc3)C2)c1 (centres undefined)	/	-6	-2	-4.0	-6%
O=C(NC(=S)NNC(=O)c1ccccc1O)c1cccc([N+](=O)[O-])c1	/	/	11	30	/
COC(=O)c1ccccc1NC(=O)c1ccnn1C	/	0	-6	3.7	5%
COc1ccc(CNC(=O)C2CC(=O)N(C3CCCC3)C2)cc1 (centres undefined)	/	/	4	1.0	/
CC(=O)c1c(C)n(-c2cccc(Cl)c2)c2ccc(O)cc12	/	/	87	-0.2	/
Cc1cccc(C=Nc2ccccc2C(N)=O)c1	-6	-20	-4	-2.1	-3%
COc1ccc(-c2nnn(CC(=O)N3CCOCC3)n2)cc1	-9	-3	-8	-1.9	6%
C/C(CC1(O)C(=O)N(C)c2ccccc21)=N\O (centres undefined)	-32	-5	4	/	-4%
O=C(O)c1ccc2c(c1)C(=O)N(Cc1ccc3c(c1)OCO3)C2=O	-29	1	10	2.5	-6%
OCCOCCOc1ccccc1OCCOCCO	/	1	2	-0.9	-2%
CC(=O)OCCOc1nc(NC(C)C)nc(NC(C)C)n1	-27	1	0	0.7	-8%
COc1ccc(N2CCN(C(=O)CSc3ccc(C)cc3)CC2)cc1	/	-1	3	-1.7	-4%
O=C(NNC(=O)c1cc(OCC(F)(F)F)ccc1OCC(F)(F)F)c1cccc(C(F)(F)F)c1	-41	-16	78	-2.5	-1%
O=C(CC1NCCN(Cc2ccccc2)C1=O)Nc1ccccc1 (centres undefined)	/	/	-1	1.4	-15%
CCn1c(SCc2cccc(C(=O)O)c2)nnc1-c1ccc(Cl)cc1	/	/	-3	0.7	/
COc1cc(/C=C2\SC(=O)N(CC(=O)Nc3cccc(C)c3)C2=O)cc([N+](=O)[O-])c1O	/	-1	/	/	-15%
COC(=O)C/C=C/[C@@H](C)[C@@H](/C=N/OC[C@@H](C)[C@H](OCc1ccccc1)C(C)C)NS(=O)(=O)c1ccc(C)cc1	-11	-9	5	4.2	/
Cc1cc(C)c2c(CN3CCN(Cc4ccccc4)CC3)cc(=O)oc2c1C	/	/	86	-0.2	/
CCOc1cc(/C=N/NC(=O)CSc2nncn2C)ccc1OCc1cccc(C)c1	-4	1	-2	1.0	5%
CCOc1ccc(-c2csc(NC(=O)CSC3=NC(=O)CN3C(C)=O)n2)c2ccccc12	-15	4	?	1.6	11%
O=C(Nc1ccc(OC(F)(F)F)cc1)N1CCN(c2ccnc3cc(Cl)ccc23)CC1	/	/	100	13	3.1µM*
N#CC1=C(SCC(=O)NC2CC2)NC(=O)C(C#N)C12CCCCC2 (centres undefined)	-23	-4	-4	2.4	-7%
COc1ccc(OC)c(N/C=C/C(=C(C#N)C#N)N(C)C)c1	/	-7	-6	-8.2	2%
Nc1ccc(C(=O)N/N=C/c2sc(N3CCOCC3)nc2-c2ccccc2)cc1	-26	-3	-7	-24	-6%
CCCc1sc(N)nc1-c1ccc(C)cc1	-36	-9	68	-0.9	4%
O=C(Nc1ccc(Br)cc1F)C1CCN(c2nnc(-n3cccc3)s2)CC1	-50	-6	7	0.3	-13%	Arbovirus anti repeat=-2
COc1ccc(S(=O)(=O)N(CC(=O)NC2CC2)c2ccc(C)cc2)cc1	/	-2	-7	-3.3	8%
CCCCNC(=O)OCCNC(=O)NC	0	-2	-8	3.3	-20%
COc1ccc(NS(=O)(=O)c2cccc3cccnc23)cc1OC	/	/	5	1.3	/
Cc1ccc(C)c(NC(=O)C2CCN(S(=O)(=O)c3ccc4c(c3)NC(=O)CO4)CC2)c1	/	/	-10	0.4	/
N#Cc1ccccc1Cn1cc(/C=N/Nc2ccc([N+](=O)[O-])cn2)c2ccccc21	/	-9	8	-1.9	-1%
CCOC(=O)c1ccc(-c2ccc(C3Nc4ccccc4C(=O)N3O)o2)cc1 (centres undefined)	-12	-28	7	-10	-5%
CCOC(=O)C1CCCN(Cc2cccc(Oc3ccccc3)c2)C1 (centres undefined)	/	/	1	1.1	/
COC(=O)c1ccccc1NC(=O)CN(C)Cc1ccccc1	/	1	8	12	8%
O=C(NNC(=O)c1ccccc1-n1cccc1)c1ccc(Cl)cc1	-31	9	96	1.8	-2%
CCCOc1ccc2[nH]c(C(=O)N/N=C/c3cc(OC)c(OC)c(OC)c3)cc2c1	/	/	8	0.2	/
O=[N+]([O-])c1ccc(OCc2cnc(Cl)s2)cc1	/	2	/	/	7%
CCOC(=O)c1ccc(N=C2S/C(=C\c3cc(C)n(-c4cccnc4)c3C)C(=O)N2C)cc1	-50	-3	96	-3.8	86%
Cc1ccc(Cn2ccnc2C(=O)Nc2ccccc2)cc1	/	3	14	-0.3	3%
Cc1ccc(NC(=O)c2cc(-c3ccccc3)nn2-c2ccccc2)c(Br)c1	-21	13	92	2.9	9%
Cc1[nH]c(=S)[nH]c(=O)c1CCOc1ccccc1	-3	-14	4	1.3	-4%

Pulled by compound from the list above:
SMILES	YopH PTP inh	Arbovirus anti	Mtb bLac sens	RecA splice inh	Mtb growth	others
Nc1nc2nccc(-c3ccc(Cl)cc3)n2n1	-21	-6	2	/	6%
COC(=O)c1ccccc1NC(=O)CN(C)Cc1ccccc1	/	1	8	12	8%
Cc1cc(C)c(C)c(S(=O)(=O)NCc2ccc(C(=O)N3CCCC3)cc2)c1C	/	1	-2	-1.1	-3%

Remaining list, next part
SMILES	YopH PTP inh	Arbovirus anti	Mtb bLac sens	RecA splice inh	Mtb growth	others
CC1CN(C(=O)/C(C#N)=C2\N=C(NC(=O)c3ccccc3Cl)c3ccccc32)CC(C)O1 (centres undefined)	4	0	/	/	2%
CCOc1cc(N2CCOCC2)c(OCC)cc1NC(=O)COC(=O)CCc1c[nH]c2ccccc12	-28	0	98	2.6	56%
CCS(=O)(=O)CCSC(=N)N	-25	0	-2	-0.5	-5%
COc1ccc(NC(=O)C2CCN(C(=O)c3cccs3)CC2)cc1	-19	3	-9	0.2	8%
CCC(C)[C@H](NC(=O)N1CC(=O)Nc2ccccc21)C(=O)N1CCC[C@@H]1C(=O)O (some centres undefined)	/	/	2	0.3	/
CCC(NS(=O)(=O)c1ccc(C)cc1)C(=O)Nc1ccc(NC(C)=O)cc1 (centres undefined)	-6	1	-2	-2.2	-2%
CCC1=NN2C(=N)/C(=C\c3ccc(OCc4cc(=O)n5nc(CC)sc5n4)c(OC)c3)C(=O)N=C2S1	/	0	/	0.4	4%
CC(=O)Nc1ccc(S(=O)(=O)N2CC3(C)CC2CC(C)(C)C3)cc1 (centres undefined)	/	-9	5	6.0	0%
COc1ccccc1CN(Cc1nc2ccccc2c(=O)[nH]1)S(=O)(=O)c1ccc(C)cc1	-2	-2	0	4.2	-4%
CCOC(=O)c1c(N)sc2c1CCC(CC)C2 (centres undefined)	-18	6	-1	-2.5	-7%
CC(C)N1CCC(N2CCN(Cc3nc4ccccc4s3)CC2CCO)CC1 (centres undefined)	/	/	-5	-0.1	0%
COc1ccc(OC)c(S(=O)(=O)NC2CCSc3ccccc32)c1 (centres undefined)	/	/	3	1.4	/
CC(C)N(C)CCOC(=O)c1ccccc1Br	-22	1	13	-1.1	4%
O=C(/C=C/c1ccc(-c2ccccc2[N+](=O)[O-])o1)c1ccco1	/	-27	78	3.8	2%
COc1ccc(CNC(=O)C2CC(=O)N(c3ccc(OCC(=O)N4C(C)CCCC4C)cc3)C2)cc1 (centres undefined)	-8	1	5	1.6	-6%
C/C(CCc1oc2ccc(Br)cc2c1-c1ccc(C)o1)=N/O	-7	-1	38	3.1	8%
Oc1ccccc1/C=N/Nc1nn[nH]n1	/	/	2	-6.9	-9%
COc1ccc(NC(=O)CSc2nc3ccsc3c(=O)n2CCC(=O)O)c(OC)c1	/	/	3	-0.4	/
CCn1nc(C(=O)OCC(=O)N(CC(C)C)c2c(N)n(Cc3ccccc3)c(=O)[nH]c2=O)c2ccccc2c1=O	/	/	-10	-6.0	/
CCOc1ccc(-n2cc(C(=O)N3CCCCCC3)c3cc(OC)c(OC)cc3c2=O)cc1	-18	-1	-3	/	5%
COc1cccc(C2C(C#N)=C(N)OC3=C2C(=O)CC(c2ccco2)C3)c1OCc1ccc(F)cc1 (centres undefined)	-2	4	4	13	-3%
O=C(O)CCn1nnc(-c2ccccc2)n1	/	2	-5	-0.6	-9%
NCCCC[C@H](N)c1nnc([C@H](CCC(=O)O)NC(=O)C2CCNCC2)o1	/	7	-9	-1.1	-12%

Taken from the entries so far (21 entries):
SMILES	YopH PTP inh	Arbovirus anti	Mtb bLac sens	RecA splice inh	Mtb growth	others
CCS(=O)(=O)CCSC(=N)N	-25	0	-2	-0.5	-5%
COc1ccc(NC(=O)C2CCN(C(=O)c3cccs3)CC2)cc1	-19	3	-9	0.2	8%
CCC(C)[C@H](NC(=O)N1CC(=O)Nc2ccccc21)C(=O)N1CCC[C@@H]1C(=O)O (some centres undefined)	/	/	2	0.3	/
CCC(NS(=O)(=O)c1ccc(C)cc1)C(=O)Nc1ccc(NC(C)=O)cc1 (centres undefined)	-6	1	-2	-2.2	-2%
CCC1=NN2C(=N)/C(=C\c3ccc(OCc4cc(=O)n5nc(CC)sc5n4)c(OC)c3)C(=O)N=C2S1	/	0	/	0.4	4%
CC(=O)Nc1ccc(S(=O)(=O)N2CC3(C)CC2CC(C)(C)C3)cc1 (centres undefined)	/	-9	5	6.0	0%
COc1ccccc1CN(Cc1nc2ccccc2c(=O)[nH]1)S(=O)(=O)c1ccc(C)cc1	-2	-2	0	4.2	-4%
CCOC(=O)c1c(N)sc2c1CCC(CC)C2 (centres undefined)	-18	6	-1	-2.5	-7%
CC(C)N1CCC(N2CCN(Cc3nc4ccccc4s3)CC2CCO)CC1 (centres undefined)	/	/	-5	-0.1	0%
COc1ccc(OC)c(S(=O)(=O)NC2CCSc3ccccc32)c1 (centres undefined)	/	/	3	1.4	/
CC(C)N(C)CCOC(=O)c1ccccc1Br	-22	1	13	-1.1	4%
O=C(/C=C/c1ccc(-c2ccccc2[N+](=O)[O-])o1)c1ccco1	/	-27	78	3.8	2%
COc1ccc(CNC(=O)C2CC(=O)N(c3ccc(OCC(=O)N4C(C)CCCC4C)cc3)C2)cc1 (centres undefined)	-8	1	5	1.6	-6%
C/C(CCc1oc2ccc(Br)cc2c1-c1ccc(C)o1)=N/O	-7	-1	38	3.1	8%
Oc1ccccc1/C=N/Nc1nn[nH]n1	/	/	2	-6.9	-9%
COc1ccc(NC(=O)CSc2nc3ccsc3c(=O)n2CCC(=O)O)c(OC)c1	/	/	3	-0.4	/
CCn1nc(C(=O)OCC(=O)N(CC(C)C)c2c(N)n(Cc3ccccc3)c(=O)[nH]c2=O)c2ccccc2c1=O	/	/	-10	-6.0	/
CCOc1ccc(-n2cc(C(=O)N3CCCCCC3)c3cc(OC)c(OC)cc3c2=O)cc1	-18	-1	-3	/	5%
COc1cccc(C2C(C#N)=C(N)OC3=C2C(=O)CC(c2ccco2)C3)c1OCc1ccc(F)cc1 (centres undefined)	-2	4	4	13	-3%
O=C(O)CCn1nnc(-c2ccccc2)n1	/	2	-5	-0.6	-9%
NCCCC[C@H](N)c1nnc([C@H](CCC(=O)O)NC(=O)C2CCNCC2)o1	/	7	-9	-1.1	-12%

Screening results (PubChem BioAssay)
